Compound activity (PubChem BioAssay)
TRPML1 ag = agonists of human TRPML1 channel; TRPML1-expressing cells, Ca2+ dye fluorescence, FDSS; host cell line not named in the record; reference of the full effect not given here; AID 624414; 0.12% of 410,000 active; activation, % (no concentration beside the values); Q9GZU1; in the data active = activation above about 50%; inconclusive = about 30% to 50%; inactive = below about 30%; further: 0% is about no effect; the text of the record puts the active cut at 80%
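Cells: TRPML1-DL, 1X Tet inducer, ~16 h at 37 degrees C/5% CO2. Dye: ABD Ca8 no-wash + quencher, 45-90 min RT. Read: 10 s baseline, compound add, 110 s agonist phase; 54-4 EC80 (4uM final), 110 s antagonist phase.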
Six1-Eya2 inh = inhibitors of human Six1/Eya2 interaction. AlphaScreen GST-Six1/His-Eya2 binding, biochemical; active compounds read low; control for the full effect not named in the record. activity change, % (concentration not given with the values). Q15475+O00167. 0.56% of 360,000 active; in the data active = activity change below about -65%; inconclusive = about -30% to -65%; inactive = above about -30%; further: on the % scale 0 is the no-effect control and ±100 the full control effect
Target sequence (O00167 whole entry, looked up): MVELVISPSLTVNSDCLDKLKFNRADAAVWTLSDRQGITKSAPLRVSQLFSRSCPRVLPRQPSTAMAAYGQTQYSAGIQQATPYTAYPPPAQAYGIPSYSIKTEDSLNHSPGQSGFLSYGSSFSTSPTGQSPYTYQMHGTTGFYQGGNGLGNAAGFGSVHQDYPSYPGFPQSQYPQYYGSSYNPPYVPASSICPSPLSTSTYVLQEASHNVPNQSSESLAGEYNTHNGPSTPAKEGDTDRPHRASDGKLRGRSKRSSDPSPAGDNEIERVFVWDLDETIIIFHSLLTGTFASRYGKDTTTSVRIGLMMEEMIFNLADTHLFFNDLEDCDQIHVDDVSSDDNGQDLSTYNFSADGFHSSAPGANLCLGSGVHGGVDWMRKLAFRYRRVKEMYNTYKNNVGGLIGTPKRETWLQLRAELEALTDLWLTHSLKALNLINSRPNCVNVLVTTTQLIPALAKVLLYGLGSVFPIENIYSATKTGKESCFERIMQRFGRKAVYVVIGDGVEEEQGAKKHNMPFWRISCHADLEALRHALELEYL
Target sequence (Q15475 whole entry, looked up): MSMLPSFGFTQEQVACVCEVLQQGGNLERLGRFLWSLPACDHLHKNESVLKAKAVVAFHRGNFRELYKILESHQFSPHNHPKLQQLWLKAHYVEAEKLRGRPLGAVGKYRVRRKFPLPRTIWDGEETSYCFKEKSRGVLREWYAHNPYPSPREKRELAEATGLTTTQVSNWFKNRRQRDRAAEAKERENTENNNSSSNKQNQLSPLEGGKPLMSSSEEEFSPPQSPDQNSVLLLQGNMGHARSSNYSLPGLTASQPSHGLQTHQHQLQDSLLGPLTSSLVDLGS
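AlphaScreen luminescence read after one hour at 37 °C in darkness. Pin-transferred compounds met GST-Six1 and His-Eya2 protein (5X stock 250 nM/500 nM) plus glutathione donor and Ni-chelate acceptor beads (5X, 50 ug/mL).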
PINK1 expr mod = modulators of PINK1 expression; PINK1 immunofluorescence, high-content cytometry, 24 h; Potency, µM (titrated, usually from 76.6 µM), for inactives: top-dose activation (PINK1 increase), most hits filed as activators; 0.2% of 410,000 active; active = well fitted activation curve with a large enough effect; inconclusive = small, poorly fitted or top-dose-only effect; inactive = flat fitted curve, though single readings scatter; cell line not stated here;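 further: potency means the concentration at half of the fitted maximal effect; % of control where 0% means no effect; nearly all actives have a fitted effect of over 65% in size; a mitochondrial uncoupler was the plate control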
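Measures PINK1 amount and localization on or inside mitochondria by immunofluorescence. Stable cells get compounds at 5 concentrations for 24 hours before fixation and staining; CCCP controls included.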
D2 potentiator = potentiates the human D2 dopamine receptor allosterically | DiscoveRx D2 beta-arrestin cells, luminescence, 90 min; 100% = 57 uM dopamine signal | potentiation, % (test concentration not listed) | 0.23% of 360,000 active | P14416; active = potentiation of 50% or more; inconclusive = 30% to 50%; inactive = 30% or less;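 further: compound concentration not given in the record; tested on top of an EC20 dose of dopamine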
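D2 cells co-treated with compound plus 50 nM dopamine (EC20) for 90 min at 37 deg C to detect potentiation. Beta-arrestin recruitment was read as enzyme-fragment luminescence after 1 h at ambient temperature. Full response was set by 57 uM dopamine.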
TRPML1 blocker = blocks the human TRPML1 channel | activity change, negative = inhibition, % (concentration not given with the values) | TRPML1-inducible cells, Ca2+ dye fluorescence, FDSS; active compounds read low; inhibition of EC80 agonist-evoked calcium signal | 0.02% of 390,000 active | AID 624415 | Q9GZU1; in the data active means activity change below about -50%; inconclusive means about -30% to -50%; inactive means above about -30%;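 further: stimulus is agonist 54-4 at its EC80 concentration; on the % scale 0 is the no-effect control and ±100 the full control effect; the text of the record puts the active cut at -80%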
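Tet-induced TRPML1-DL cells loaded with Ca8 no-wash calcium dye were read kinetically on FDSS. Compound addition was followed by EC80 agonist 54-4 (4 uM final); inhibition was read over 110 s.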
D2 ag = agonists of human D2 dopamine receptor (beta-arrestin); P14416; DiscoveRx PathHunter D2 beta-arrestin, luminescence, 90 min; 100% = 57 uM dopamine signal; activation, % (concentration not given with the values); 0.084% of 360,000 active; AID 624465; in the data active = activation above about 40%; inconclusive = about 15% to 40%; inactive = below about 15%; further: compound concentration not given in the record; the text of the record calls up to 30% inactive
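Agonist mode: compounds alone added to overnight-plated D2 PathHunter cells for 90 min at 37 C, with 57 uM final dopamine (EC100) defining full response. Beta-arrestin recruitment detected by chemiluminescent reagent, read after 1 h at ambient temperature.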
An asterisk follows results filed as active; ? = inconclusive; . = not tested or not shown; & = joins results of further samples; [ ] = dose if it differs, or a comment.

Screens in order: PINK1 expr mod	D2 ag	TRPML1 ag	TRPML1 blocker	Six1-Eya2 inh	D2 potentiator
CCNc1nc(NCC)n2c(SCC(=O)O)nnc2n1
 : 11.1%	0.2	1.5	10.8	5.4	-3.7
Cc1cc2nc(-c3ccc[nH]c3=O)n(Cc3ccc(F)cc3)c2cc1C
 : 2.5%	-1.3	1.5	16.4	-4.4	-1.1
Cc1cc(S(=O)(=O)N2CC(=O)N(CCc3ccccc3)C(=O)C2)ccc1F
 : 0.0%	-2.7	1.7	-13.6	-0.6	-3.2
CC(Sc1ncnc2sc(-c3ccccc3)cc12)C(=O)N1CCNC1=O (stereo not given)
 : 0.5%	11.3	0.5	-13.0	1.7	-2.5
COc1cc(-c2ccc3cc(OC)c(OC)c(OC)c3c2)cc(OC)c1OC
 : 5.4%	-3.2	-0.8	0.2	-4.8	-3.1
CCCNC(=O)CN1C(=O)NC(Cc2c[nH]c3ccccc23)C1=O (stereo not given)
 : 2.4%	-2.7	0.4	-4.7	-5.7	-1.5
O=C(CCS(=O)(=O)Cc1ccc(Cl)cc1)NCCCN1CCN(c2ccccc2F)CC1
 : 0.8%[38.3 µM]	1.8	3.3	-9.2	-0.4	2.8
CC1=C(C(=O)Nc2cccnc2)C(c2ccncc2)n2nnnc2N1 (stereo not given)
 : -1.5%	-1.0	1.3	-5.1	-0.6	-7.1
COc1ccc(CCNC(=O)c2nnc(CS(=O)(=O)c3ccccc3)o2)cc1OC
 : 0.3%	-1.6	0.2	-13.6	4.8	-0.8
CCC1SC(N)=NC1=O (stereo not given)
 : -0.2%	0.0	-0.4	8.3	-1.5	-1.5
O=C(N=C1SC2CS(=O)(=O)CC2N1Cc1ccc(Cl)cc1)C1CC1 (stereo not given)
 : -0.3%	1.3	3.8	7.4	4.9	-3.1
COc1cc(/C=N/NC(=O)c2cn(-c3cccc(C)n3)cn2)ccc1O
 : 8.0%	2.9	2.5	19.6	?	0.0
COc1cc(/C=N/S(=O)(=O)c2ccccc2)cc(OC)c1O
 : 1.8%	6.5	-0.1	-15.5	3.5	-2.3
CCOC(=O)c1ccc(NC=C2C(=O)OC3(CCCCC3)OC2=O)cc1
 : ?	-1.4	0.4	-3.8	0.0	4.9
C[C@H](O)[C@@H]1CN2CCc3c([nH]c4ccc(-c5ccc6c(c5)OCO6)cc34)[C@@H]2C[C@@H]1N(C)C(=O)Nc1cc(Cl)cc(Cl)c1
 : 12.9%	-3.4	-0.1	-24.9	-23.4	-2.5
CCOc1ccc(CNC(=O)c2ccc(NC(=O)N3CCSc4ncccc43)cc2)cc1OC
 : -1.2%	.	0.8	-7.1	.	.
O=C(COc1ccccc1)NNC1=NS(=O)(=O)c2ccccc21
 : -1.3%	-2.5	0.0	3.5	5.9	-6.8
COC(=O)c1ccc2nc(-c3cccc(Br)c3)c(Cc3ccc(OC)cc3C)n2c1
 : 0.7%	-9.5	0.9	-11.2	0.5	-15.5
CCC1NC(=O)c2cccnc2-n2c1nc1cc(C)cc(C)c1c2=O (stereo not given)
 : 0.2%	-2.2	-0.5	-13.8	9.9	0.7
O=C(COc1cccc2cccnc12)Nc1nccs1
 : -1.8%	-2.0	-0.7	-5.3	-9.6	-10.7
COc1ccccc1Nc1nc(N)nc(CSCCO)n1
 : -3.1%	-0.5	-0.3	-11.9	3.0	19.8
COc1ccc(-c2ccc(-c3nnc(Cc4ccc(OC)c(OC)c4)o3)cc2)cc1
 : 12.6%[38.3 µM]	-2.0	-0.5	0.6	0.8	-2.4
CCN(c1ccccc1)S(=O)(=O)c1cc(C(=O)Nc2ccccc2Cl)ccc1F
 : 0.1%	1.1	0.2	-9.8	27.3	6.6
CCc1cccc(NC(=O)C2Cc3ccccc3N2C(=O)c2ccccc2)c1 (stereo not given)
 : 2.0%	.	4.0	46.2	.	.
O=C(NCc1ccc2c(c1)OCO2)C(=O)NCC1OCCN1S(=O)(=O)c1ccc(Br)cc1 (stereo not given)
 : -1.7%	-3.5	2.2	1.7	0.0	-8.8
CCOC(=O)c1c(C)c2c(n1C)CCC/C2=N\O
 : 1.6%	4.3	1.5	-8.9	2.8	-10.2
NC(=O)c1cnn2c1NC(c1ccc(F)cc1)CC2C(F)(F)F (stereo not given)
 : -1.1%	-0.3	0.2	18.2	4.3	2.1
COc1ccc(N(C(=O)c2cnccn2)C(C(=O)NC2CCCCC2)c2ccccc2)cc1 (stereo not given)
 : 4.1%	-3.2	-0.1	-3.1	-7.2	-7.9
Cc1ccc(NC(=O)Cc2nnc(SCC(=O)NC3CCCC3)n2C)cc1
 : 1.9%	3.6	-0.2	-15.3	7.2	-1.5
CCOc1ccc(C(=O)Nc2nc(C)cc(C)n2)cc1[N+](=O)[O-]
 : 4.9%	3.8	0.4	12.9	6.1	-3.3
COc1ccc(CCNC(=O)c2[nH]c(C)c(C(C)=O)c2C)cc1OC
 : -0.3%	-0.2	0.2	0.9	-1.3	-13.7
Brc1ccccc1OCCOCCOc1cccc2cccnc12
 : -0.3%	-2.2	-0.6	0.6	6.4	0.7
COc1ccc(OCCN2CCC(C(=O)NC(c3ccc(F)cc3)c3ccc4ccccc4n3)CC2)cc1 (stereo not given)
 : 2.7%	-3.6	0.4	.	?	-19.9
Cc1ccc(NC(=O)COC(=O)Cc2ccc(Br)cc2)cc1S(=O)(=O)N1CCOCC1
 : -0.4%	0.8	-0.7	13.3	-5.6	-1.7
COc1ccc(OCCn2cncn2)cc1
 : -1.3%	0.1	-0.2	-26.6	1.3	7.8
O=C(Nc1cccc(Cl)c1)C(Cc1ccccc1)n1cccc1 (stereo not given)
 : 2.2%	.	4.0	-12.4	.	.
COc1ccc(NC(=O)CN(C)C(=O)C(C)Oc2ccc(Br)cc2)cc1 (stereo not given)
 : 7.8%	-2.3	-0.4	8.2	-2.2	2.3
Cc1ccc(S(=O)(=O)Oc2ccc(N3C(=O)C4C5CCC(C5)C4C3=O)cc2)cc1 (stereo not given)
 : 8.9%	-1.8	0.8	-2.6	2.1	-2.4
O=c1[nH]c(=S)[nH]c2nc(-c3cccs3)cc(C(F)(F)F)c12
 : -1.9%	1.5	-1.6	-1.6	?	-7.3
O=C(Cc1ccc2c(c1)OCCO2)Nc1ccc(Cl)c(S(=O)(=O)N2CCOCC2)c1
 : -0.9%	-3.8	-0.7	-0.1	-9.1	-16.7

Individual results from the entries so far.
D2 ag with Brc1ccccc1OCCOCCOc1cccc2cccnc12 = -2.2
D2 ag with COc1ccc(OCCN2CCC(C(=O)NC(c3ccc(F)cc3)c3ccc4ccccc4n3)CC2)cc1 (stereo not given) = -3.6
TRPML1 blocker with COc1ccc(OCCn2cncn2)cc1 = -26.6
D2 potentiator with O=C(Cc1ccc2c(c1)OCCO2)Nc1ccc(Cl)c(S(=O)(=O)N2CCOCC2)c1 = -16.7

Next structures follow:
Screens in order: PINK1 expr mod	D2 ag	TRPML1 ag	TRPML1 blocker	Six1-Eya2 inh	D2 potentiator
O=C(Nc1nc2ccccc2s1)c1ccc(F)cc1
 : -0.6%	5.6	3.3	2.1	-6.7	?
CCCSc1nc2c(c(=O)n(C)c(=O)n2C)n1Cc1ccc(C)cc1
 : 1.9%	-5.1	1.9	-1.8	-2.2	3.0
CC1=NN(c2ccccc2)C(=O)C1C(=O)c1ccc(Cl)cc1 (stereo not given)
 : 1.4%	-0.8	0.8	-3.3	1.6	-6.1
CCc1ccc(Cn2nnc(C(=O)NCc3ccccc3OC)c2N)cc1
 : 3.5%	3.9	2.4	-0.8	6.5	-1.4
O=C(O)/C=C/c1cn(-c2ccccc2)nc1-c1cc2ccccc2oc1=O
 : -1.3%	-1.3	0.5	22.9	16.2	-6.2
O=C1CC(c2ccccc2)CC(=O)C1Sc1ccc(Cl)cc1 (stereo not given)
 : -0.9%	-2.7	-0.6	-1.3	-4.6	3.1
CCOc1ccc(C(=O)N[C@H](C(=O)NC2CCCCC2)C(C)C)cc1
 : -0.5%	0.2	-0.5	-0.8	5.2	-14.4
CCS(=O)(=O)N1Cc2ccccc2CC1C(=O)Nc1nc2c(C)cccc2s1 (stereo not given)
 : 1.1%	-0.6	1.9	75.0	-0.6	-15.1
C/C(=N\NC(=O)C(N)=O)c1ccc(NC(=O)c2cccs2)cc1
 : -0.2%	-2.5	-0.4	9.5	-0.5	-6.4
CN(C)c1ccc(C(CNS(=O)(=O)c2cc(F)ccc2F)N2CCOCC2)cc1 (stereo not given)
 : 1.2%	.	-0.4	-3.4	.	.
CC(C)N(Cc1cn[nH]c1-c1ccc(-c2ccccc2)cc1)Cc1nccn1C
 : 2.6%	-2.3	0.0	-6.8	-14.5	-18.1
Cc1cccc(C)c1OCC(=O)NC1CC1
 : 2.7%	-1.9	-0.4	-10.7	5.7	2.7
Cc1ccc(S(=O)(=O)Nc2ccccc2CNc2ccc(Br)cn2)cc1
 : 15.8µM*	-2.1	0.8	40.1	1.8	-2.0
COCCN(C(=O)c1csnn1)C(C(=O)NC1CCCCC1)c1ccccc1 (stereo not given)
 : -0.5%	-1.3	0.3	-2.4	-1.6	-3.6
COc1ccc(NC(=O)CN2CCN(CC(=O)Nc3ccccc3F)CC2)c(OC)c1
 : -2.1%&-1.2%	-1.6	0.3&-0.4	-19.8&-4.9	-2.3	-35.2
CCOC(=O)C(C)Sc1cc(CS(=O)(=O)c2ccccc2)nc(-c2ccccc2)n1 (stereo not given)
 : -21.0%[38.3 µM]	-5.6	0.0	16.9	-0.1	-13.7
COC(=O)c1ccc(C(=O)OC)c(NC(=O)COC(=O)c2ccccc2OC)c1
 : 5.3%	-3.1	0.1	2.9	-9.2	-8.0
Cc1ccc(S(=O)(=O)N2CCOC2CNC(=O)C(=O)NCCc2c[nH]c3ccccc23)cc1 (stereo not given)
 : -0.3%	5.9	1.3	-12.3	-5.8	-10.2
Cc1cc(C(=O)NC2CCCCCCC2)ccc1[N+](=O)[O-]
 : 8.9%	-1.7	3.2	43.3	0.4	-0.5
CCC1(CC)CNC(=O)NC1
 : 1.9%	-0.8	-0.6	20.9	-1.3	-3.2
O=C(NCCC1=CCCCC1)C1CCN(C(=O)Nc2ccccc2)CC1
 : 1.3%[38.3 µM]	-3.5	-0.7	-9.3	4.5	-6.3
CCn1cnc2cc(NS(=O)(=O)c3ccc(OC)c(OC)c3)ccc21
 : -0.4%	2.3	0.5	-21.5	-3.9	-10.0
CSc1ccc(C(=S)N2CCN(CCO)CC2)cc1
 : .	-3.5	-0.4	3.6	-0.6	-11.6
COC(=O)c1ccc([C@@H](O)[C@H](C)C(=O)CC(=O)OC(C)(C)C)cc1
 : 1.5%	-0.6	-0.4&1.0	7.6&-10.5	0.6	-1.2
COc1cccc(CNC(=O)COc2cc(O)c3c(c2)OC(C)(C)CC3=O)c1
 : 0.6%	-4.9	.	.	1.3	-11.7
Cn1c(CC(=O)NCCO)c(Sc2ccccc2)c2ccccc21
 : -1.1%	-4.7	1.3	13.3	5.3	-3.6

Full records from above.
Cn1c(CC(=O)NCCO)c(Sc2ccccc2)c2ccccc21 across the screens: PINK1 expr mod: -1.1%; D2 ag: -4.7; TRPML1 ag: 1.3; TRPML1 blocker: 13.3; Six1-Eya2 inh: 5.3; D2 potentiator: -3.6
O=C(NCCC1=CCCCC1)C1CCN(C(=O)Nc2ccccc2)CC1 across the screens: PINK1 expr mod: 1.3%[38.3 µM]; D2 ag: -3.5; TRPML1 ag: -0.7; TRPML1 blocker: -9.3; Six1-Eya2 inh: 4.5; D2 potentiator: -6.3
